Bioassay records as filed in PubChem.
MgrA-DNA mod: S. aureus MgrA activity modulators, primary screen, biochemical, S. aureus Newman, fluorescence polarization. MgrA-DNA binding. inhibition, %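 (about 10 µg/mL by stock and volumes)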. 0.13% of 84,000 active. AID 602314, 2012;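 active = above 50% in either of two replicates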;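 note: 0% = protein plus DNA without compound and 100% = DNA alone without protein; higher means less MgrA bound to DNA so lower polarization; one replicate is shown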
Sa helicase inh: inhibitors of S. aureus replicative helicase, primary screen, biochemical, fluorescence unwinding readout; AID 485395, 2010; inhibition, %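 (tested at about 80 µM)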; 0.05% of 120,000 active; purified S. aureus helicase, fluorescence unwinding assay; about half of the hits fall short of the stated cut;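 active = both duplicates at 50% or more, or one of them with a favoured structure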;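 note: 0% = mean of negative control wells and 100% = mean of positive control wells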
An asterisk follows results filed as active; x = not tested or not shown; & = joins results of further samples. Only part of the results is shown; the hit share may differ from the screen's.

Sa helicase inh,MgrA-DNA mod,SMILES
x,2.8,COC(=O)c1ccccc1C(=O)c1cc(C)c(O)c(C)c1
x,-1.1,Cc1cccc(C)c1NC(=S)SCC(N)=O
-10.0,2.0,COc1ccc(OCC(=O)NCCO)cc1
x,-1.1,COC(=O)c1ccc(/C=C2\SC(=Nc3cc(C)cc(C)c3)NC2=O)cc1
-1.0,x,Cn1nc(Nc2ccccc2N)cc1-c1ccccc1
3.0,x,O=C(CN1CCN(c2ccc(C(F)(F)F)cn2)CC1)N1CCCC1c1ccc2c(c1)OCCCO2 (stereo not drawn)
x,-0.9,CC(C)COC(=O)c1cn(C2CCCCC2)c2ccccc2c1=O
12.0,-0.1,OC(c1ccccc1)c1nc2ccccc2n1Cc1ccccc1 (stereo not drawn)
12.0,x,C/C(=N\N=C1/NC(=O)CC(C(N)=O)S1)c1cccs1 (stereo not drawn)
-8.0,x,CCOc1ccc2c(c1)C(C)CC(C)(C)N2 (stereo not drawn)

Sa helicase inh,MgrA-DNA mod,SMILES
5.0,3.0,Cc1ccc(CNc2ccc3c(c2)CCC3)o1
6.0,-2.5,O=C(CN(c1ccc2c(c1)OCCO2)S(=O)(=O)c1ccccc1)NCc1ccco1
18.0,x,Cc1cccc(C(=O)OCC(=O)Nc2oc(C)c3c(C)n[nH]c(=O)c23)c1O
-9.0,x,Cc1cc(NC(=O)C2CCC2)n(-c2ccccn2)n1
-12.0,x,CCCCC1(C)Cc2ccccc2C(=O)N1 (stereo not drawn)
-25.0,-2.3,COc1cc(OC)cc(C2SC(N)=C(C#N)C(N)=C2C#N)c1 (stereo not drawn)
19.0,x,Cc1oc2ccc(O)c(CN3CCN(Cc4ccccc4)CC3)c2c1C(=O)Nc1ccc(C(C)C)cc1
8.0,2.2,O=C(Nc1ccc(-c2nc3ccccc3o2)cc1)C1CCCC1
13.0,x,O=C1CN(C(=O)COC(=O)c2ccccc2)c2ccccc2N1
0.0,0.3,COc1cccc(C2C3=C(CCCC3=O)N(C)C3=C2C(=O)CCC3)c1

Sa helicase inh,MgrA-DNA mod,SMILES
14.0,x,CCn1c(=O)n(CC)c2cc(N3CCCC3)c(NC(=O)CC(=O)OC)cc21
11.0,2.9,Nc1ccccc1-c1nnc(-c2ccc(-c3ccccc3)cc2)o1
4.0,-2.2,CC1(C)CC(C(CC#N)c2ccccc2)CCO1 (stereo not drawn)
25.0,x,CC(C#N)Sc1nnc(-c2ccco2)n1Cc1ccccc1 (stereo not drawn)
-18.0,x,COc1ccc(-c2cc(-c3cccs3)n(-c3nc(C)cc(=O)[nH]3)n2)cc1
5.0,1.4,CCN(CC)C(=O)c1ccc(COc2cccc3ccccc23)o1
-15.0,x,Cc1nc2nc(CCc3ccccc3)nn2c(C)c1Cl
-8.0,1.1,CC(C)(C)Nc1nc2nonc2nc1NC(C)(C)C
14.0,-0.3,c1ccc(-c2noc(CC3CCCCC3)n2)cc1
12.0,x,O=C(COC(=O)C1(c2ccc(F)cc2)CCCC1)NC1CC1

A stretch from the list above, for reference:
Sa helicase inh,MgrA-DNA mod,SMILES
14.0,-0.3,c1ccc(-c2noc(CC3CCCCC3)n2)cc1
12.0,x,O=C(COC(=O)C1(c2ccc(F)cc2)CCCC1)NC1CC1

Retrieved one by one from the entries so far (2):
Sa helicase inh,MgrA-DNA mod,SMILES
5.0,1.4,CCN(CC)C(=O)c1ccc(COc2cccc3ccccc23)o1
14.0,-0.3,c1ccc(-c2noc(CC3CCCCC3)n2)cc1

Next part
Sa helicase inh,MgrA-DNA mod,SMILES
-19.0,x,Cc1cc(NC(=O)CSc2nnc(Cn3c(=O)sc4ccccc43)n2-c2ccccc2)no1
2.0,x,CCc1nnc(NC(=O)CSc2nc3c(c(=O)n2Cc2ccccc2)SC(C)C3)s1 (stereo not drawn)
-16.0,-0.7,Cc1cc(C)cc(Oc2c(C(F)(F)F)oc3c(CN4CC(C)OC(C)C4)c(O)ccc3c2=O)c1 (stereo not drawn)
-1.0,2.0,O=C(NCc1cccs1)c1cc2c(=O)[nH]c3ccccc3c2s1
x,-0.2,O=C1CCCCC1CCS(=O)(=O)c1ccc(Cl)cc1 (stereo not drawn)
x,10.2,O=C1C=CC(=O)N1c1ccc2scnc2c1
7.0,-1.8,Nc1ccc(-c2nc3ccccc3[nH]2)cc1
x,3.9,CSc1nc(N)c(C#N)n1Cc1ccco1
1.0,-1.5,CCc1ccc2oc(C(=O)Nc3ccccc3OC)c(C)c2c1
8.0,x,CC(C)C(NC(=O)C1CCCCC1)C(=O)Nc1ccc(F)c(Cl)c1 (stereo not drawn)

Sa helicase inh,MgrA-DNA mod,SMILES
-25.0,x,O=c1cc(NCCCO)c2ccccc2o1
-9.0,3.5,COc1ccccc1NC(=O)c1c(NCc2cccs2)sc2c1CCCCC2
2.0,x,CCCNC(=O)C1CN(S(=O)(=O)c2ccc(Cl)s2)c2ccccc2O1 (stereo not drawn)
-4.0,x,CCCCn1nnnc1COC(=O)c1c2c(nc3ccccc13)CCCCC2
x,-2.5,O=C(Nc1ccc(C(F)(F)F)cc1)N1CCC(C(F)(F)F)CC1
x,2.4,COc1cc(/C=C2/C(=O)N(c3ccc(F)cc3)N=C2C)ccc1OCc1ccc(F)cc1
-13.0,0.8,CCCNC(=O)CCc1c(C)nc2c(c1C)c(=O)n(C)c(=O)n2C
5.0,-0.8,CCN(CC)S(=O)(=O)c1cccc(-c2[nH]c3ccccc3[n+]2-c2ccccn2)c1
17.0,1.4,NC(=O)c1c(NC(=O)c2ccc3c(c2)OCCO3)sc2c1CCC2
-14.0,x,Cc1ccc(S(=O)(=O)CC(O)CN2CCCC2=O)cc1 (stereo not drawn)

Sa helicase inh,MgrA-DNA mod,SMILES
10.0,2.5,Clc1ccc(-c2cn3c4ccccc4nc3n2CCCNC2CCCCC2)cc1
12.0,x,COc1ccc(NC(=O)c2c(NCc3ccc(C)o3)sc3c2CCCC3)cc1
-5.0,x,CCOc1ccccc1NC(=O)COC(=O)Cc1ccc(OC)cc1
12.0,0.5,C=CCn1c(CNC(=O)c2ccco2)nnc1SCC(=O)Nc1cccc(Br)c1
13.0,x,CCOC(=O)c1cc(C(O)(C(F)(F)F)C(F)(F)F)c(N)o1
5.0,10.4,O=C1Nc2ccccc2Oc2cc(Sc3ccccc3)ccc21
12.0,x,O=C(/C=C/c1ccc2c(c1)OCO2)Oc1ccc2c(c1)OCO2
-4.0,x,CC(c1ccco1)N(Cc1ccco1)C(=O)Nc1ccccc1 (stereo not drawn)
9.0,x,CN(CC(=O)Nc1ccc(N2CCOCC2)cc1)S(=O)(=O)c1ccc2c(c1)OCCO2
x,2.4,CCOC(=O)c1c(C)n(C)c2ccc(OC(=O)c3cccc(Br)c3)cc12

Sa helicase inh,MgrA-DNA mod,SMILES
-38.0,x,O=C(CSc1n[nH]c(=O)n1C1Cc2ccccc2C1)c1ccc2c(c1)OCCO2
7.0,x,O=c1cc(CSc2ncccn2)nc2ccc(Br)cn12
0.0,x,COc1ccc(C#CC(=O)O)cc1
16.0,-0.3,Cn1c(C(=O)Nc2ccc3c(c2)NC(=O)CC3)cc(=O)n(C)c1=O
7.0,x,CCCC(=O)NC1CCS(=O)(=O)C1 (stereo not drawn)
1.0,x,CN(C)S(=O)(=O)c1ccc(NCC(=O)N2CCN(c3ccccc3)CC2)cc1
x,2.5,Cn1ncc(Br)c1NC(=O)Nc1ccc(F)cc1
-14.0,x,CCOC(=O)C1CCCC(C)N1 (stereo not drawn)
-1.0,10.5,Cc1ccc(/C(C#N)=C\c2ccco2)cc1
x,1.0&1.0,Cn1c(=O)c2c(ncn2CC(O)CO)n(C)c1=O (stereo not drawn)

Sa helicase inh,MgrA-DNA mod,SMILES
2.0,-1.8,O=C(CCN1C(=O)CSC1=O)Nc1ccccc1
29.0,x,Cc1ccc(C(=O)NNc2nc(Nc3ccccc3)nc(N3CCCC3)n2)cc1
-23.0,x,NC(=O)N/N=C1\c2ccccc2-c2c(C(N)=O)cccc21
-5.0,x,Cc1ccc(-c2nc(C)sc2C)cc1
-3.0,2.5,O=C(Cc1ccccc1)ON=C1C=CC(=NOC(=O)c2ccco2)C=C1
3.0,x,CC(C)(CO)NC(=O)c1ccccc1F
x,4.8,Cc1cc2nc3s/c(=C/c4ccc(N5CCC(C)CC5)c([N+](=O)[O-])c4)c(=O)n3c2cc1C
x,-0.3,Cc1nc(N2CCCCC2)ncc1S(=O)(=O)c1ccc(Cl)cc1
14.0,x,CCC(C)NC(=O)c1c(C)nn(CC(C)C)c1Cl (stereo not drawn)
x,-2.2,COC(=O)c1sc2c(C)cc(Cl)c(C)c2c1C(=O)Oc1ccccc1

Sa helicase inh,MgrA-DNA mod,SMILES
10.0,-3.7,O=C(O)CSCC(=O)NC1CCCc2ccccc21 (stereo not drawn)
-1.0,-0.9,CN=C1S/C(=C/c2cccn2-c2ccc(N(C)C)cc2)C(=O)N1C
-20.0,x,N#Cc1ccsc1NC(=O)c1cccnc1N1CCCC1
x,1.2,CCCCCCCn1c(SC(C)C)nc2c1c(=O)[nH]c(=O)n2C
4.0,x,O=C(NCc1cccs1)c1cc2c(s1)CS(=O)(=O)C2
-8.0,0.7,Cc1nc2cc(NC(=O)c3ccc(S(=O)(=O)N(C)Cc4ccccc4)cc3)ccc2s1
17.0,-0.1,CCSC1=C(C#N)C(c2ccccc2)C(C(=O)Nc2ccccc2)=C(C)N1 (stereo not drawn)
8.0,x,Cc1ccc(C(=O)CNc2ccccc2)cc1
1.0,x,Cc1cc(C)c(S)c(C)c1
x,-1.1,CCn1nc(C)cc1-c1nnc(-c2ccc(C(F)(F)F)cc2)o1

Sa helicase inh,MgrA-DNA mod,SMILES
-5.0,x,CN1CCCN(C(=O)C2CCN(S(=O)(=O)c3cccs3)CC2)c2nc3ccccc3nc21
-1.0,-0.6,N=C1C(c2ccccc2)=C(O)CN1c1ccccc1
5.0,-1.7,CC(=O)OCC(=O)Nc1cc(Cl)cc(Cl)c1
8.0,x,CCc1cccc(-n2nnc(-c3nsc(NC(=O)c4ccccc4)n3)c2C)c1
x,-1.2,COc1ccccc1N/C=C(\C#N)c1ccc(Cl)cc1
-4.0,0.9,O=C(Nc1ccccc1)Nc1ccc(Nc2ccccc2)cc1
6.0,-2.4,COCC(=O)NC1CCN(Cc2nnnn2Cc2ccc3c(c2)OCO3)CC1
4.0,-1.1,O=C(c1ccccc1Cl)n1cc(Cl)cn1
1.0,x,CCNC(=O)C1CCN(C2=NS(=O)(=O)C(c3ccc(C)cc3)=C2CC)CC1
-4.0,0.6,O=C(NC1CC2CCC(C1)N2Cc1nnnn1Cc1ccco1)NC12CC3CC(CC(C3)C1)C2 (stereo not drawn)

Sa helicase inh,MgrA-DNA mod,SMILES
x,-1.5,COC(=O)c1sc2nc(-c3ccccc3)cc(-c3ccc(OC)cc3)c2c1N
-4.0,-5.0,Cc1cccc2sc(N(CCN(C)C)C(=O)c3ccc4ncsc4c3)nc12
15.0,10.2,Sc1sccc1C=NC1CCCCC1
-8.0,x,NC(=O)CSc1nc2cc(S(=O)(=O)Nc3cccc(Cl)c3)ccc2o1
-8.0,x,Cc1ccc(C)n1-c1nc(SCCCC(=O)O)n[nH]1
2.0,x,COC(=O)c1ccc(CSc2ccc3nnc(-c4ccccn4)n3n2)o1
11.0,2.9,O=C1CCC/C1=C/c1ccccc1
10.0,-6.5,CCOCCC(=O)Nc1cc(C)cc(C)c1
9.0,0.3,CC(C)(c1ccccc1)n1nnc(-c2ccccc2)n1
-14.0,x,CC(C)Cn1c(CCNC(=O)C(C)(C)C)nc2ccccc21

Sa helicase inh,MgrA-DNA mod,SMILES
-15.0,1.2,Cc1ccc2cc(CN(C(=O)c3cccc(Cl)c3)C(C)C)c(=O)[nH]c2c1
16.0,x,CC1(C)C2CC=C(/C=N/N3C(=O)NC4(CCCCC4)C3=O)C1C2 (stereo not drawn)
15.0,x,CC(=O)Nc1ccc(S(=O)(=O)N2CCC(N(C)C(C)C)CC2)cc1
12.0,1.5,CN(C)c1nc(Nc2ccc(OC(F)(F)F)cc2)nc(NC(C)(C)C)n1
x,-2.1,CC(C)N(CCO)S(=O)(=O)c1ccc(N)cc1
-4.0,x,O=C(NC1CCSc2ccccc21)c1ccccc1 (stereo not drawn)
-22.0,x,Cc1ccc(C)c2[nH]c(=O)c(CCNC(=O)c3cccs3)cc12
x,-2.2,CSC(=CC(=O)c1sc(-c2cccs2)nc1C)SC
-9.0,x,Cn1c(=O)c2c(-c3ccccc3)n(C(CO)(CO)CO)cc2n(C)c1=O
4.0,-1.1,CCn1c(SC)nnc1C1CCCN1CC(=O)N1CCN(Cc2ccc3c(c2)OCO3)CC1 (stereo not drawn)

Sa helicase inh,MgrA-DNA mod,SMILES
4.0,0.2,Cc1ccccc1CN1C(=O)C(O)(CC(=O)c2ccccc2O)c2ccccc21 (stereo not drawn)
-3.0,-0.8,O=C(NC1=NCCS1)Nc1ccc2snnc2c1
-18.0,x,CC(=O)Nc1ccc(C(=O)N(C)Cc2cccc(F)c2)cc1
12.0,x,Fc1ccccc1OCc1n[nH]c(=S)n1-c1ccccc1
8.0,x,O=C1C2C3C=CC(C3)C2C(=O)N1CCc1ccccc1 (stereo not drawn)
x,2.1,Oc1ccc(-c2csnn2)cc1
x,0.0,COc1ccc(C(=O)Nc2ccc(N3CCN(C(=O)OC(C)(C)C)CC3)nc2)cc1
-24.0,x,CCCCOCC1CC(CC#CCN2CCCCC2)C(=O)O1 (stereo not drawn)
x,53.1*,Nc1cccc2c1C(=O)c1ccccc1-2
1.0,-0.8,CCOC(=O)/C=C(/C)Nc1nonc1NC(C)=O
-9.0,x,OCc1cnc(SCc2ccccc2)n1Cc1ccccc1

Five compounds already listed, ordered by their value in MgrA-DNA mod, ascending:
| structure | MgrA-DNA mod |
| --- | --- |
| CCOC(=O)/C=C(/C)Nc1nonc1NC(C)=O | -0.8 |
| COc1ccc(C(=O)Nc2ccc(N3CCN(C(=O)OC(C)(C)C)CC3)nc2)cc1 | 0.0 |
| Cc1ccccc1CN1C(=O)C(O)(CC(=O)c2ccccc2O)c2ccccc21 (stereo not drawn) | 0.2 |
| Oc1ccc(-c2csnn2)cc1 | 2.1 |
| Nc1cccc2c1C(=O)c1ccccc1-2 | 53.1* |
